TRPML1 blocker: blocks the human TRPML1 channel; AID 624415; TRPML1-inducible cells, Ca2+ dye fluorescence, FDSS; hits give low values; inhibition of EC80 agonist-evoked calcium signal; hit rate 0.02% among 390,000; Q9GZU1; activity change, negative = inhibition, % (no concentration beside the values); in the data active means activity change below about -50%; inconclusive means about -30% to -50%; inactive means above about -30%;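 also: stimulus is agonist 54-4 at its EC80 concentration; % is scaled to controls: 0 for no effect and ±100 for the full control effect; compound concentration not given in the record; the text of the record puts the active cut at -80%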
Target sequence (Q9GZU1 whole entry, looked up): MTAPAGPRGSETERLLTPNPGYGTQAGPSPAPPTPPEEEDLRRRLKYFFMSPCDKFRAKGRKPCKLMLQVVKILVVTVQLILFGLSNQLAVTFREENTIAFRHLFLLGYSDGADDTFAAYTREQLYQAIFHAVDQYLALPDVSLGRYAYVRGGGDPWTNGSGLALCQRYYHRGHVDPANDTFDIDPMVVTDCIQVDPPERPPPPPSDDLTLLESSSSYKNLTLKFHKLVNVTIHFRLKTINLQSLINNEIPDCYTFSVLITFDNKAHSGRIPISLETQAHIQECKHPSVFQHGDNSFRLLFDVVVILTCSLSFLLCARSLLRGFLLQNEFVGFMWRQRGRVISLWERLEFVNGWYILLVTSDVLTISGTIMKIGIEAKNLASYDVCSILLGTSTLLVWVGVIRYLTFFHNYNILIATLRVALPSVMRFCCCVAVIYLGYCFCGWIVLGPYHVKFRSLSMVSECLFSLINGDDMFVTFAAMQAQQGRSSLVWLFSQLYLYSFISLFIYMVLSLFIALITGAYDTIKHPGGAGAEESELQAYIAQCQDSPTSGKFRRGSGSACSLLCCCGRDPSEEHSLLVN
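Calcium fluorescence in TRPML1-DL cells induced overnight with Tet: a 110 s read after compound pin addition, then a 110 s antagonist read after challenge with 54-4 at 4 uM final (EC80).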
TRPML1 agonist: activates the human TRPML1 channel | TRPML1-expressing cells, Ca2+ dye fluorescence, FDSS; host cell line not named in the record; reference of the full effect not given here | AID 624414 | hit rate 0.12% among 410,000 | activation, % (concentration not given with the values); in the data active = activation above about 50%; inconclusive = about 30% to 50%; inactive = below about 30%; also: 0% is about no effect; the text of the record puts the active cut at 80%
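Tetracycline-induced TRPML1-DL cells are seeded and incubated overnight before loading with a no-wash Ca2+ dye and quencher. Agonist activity is taken from the 110 s fluorescence read following compound pin-transfer on an FDSS, before EC80 54-4 challenge.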
gsp antag: gsp mutant antagonism; gsp-mutant cells, cAMP HTRF, 30 min; control for the full effect not named in the record; Potency, µM (top dose mostly 76.9 µM), for the others: top-dose activity change, negative = inhibition, hits mostly inhibitors; hit rate 0.4% among 340,000; active = falling curve of any shape with a large fitted effect; inconclusive = falling curve, mostly with a smaller effect; inactive = flat or rising curve; cell line not stated here;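 also: intracellular cAMP measured with PDE inhibitor Ro 20-1724 present during compound exposure; potency is read from the fitted curve at half-maximal effect; % is scaled to controls: 0 for no effect and ±100 for the full control effect; nearly all actives have a fitted effect of over 65% in size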
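HTRF cAMP measurement after 30 min RT detection following 30 min, 37C compound treatment alongside […] (added as 300 uM solution) in G418-selected cells seeded at 2000/well and grown 16–24 h.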
Menin MLL FP FL: displaces fluorescein MLL peptide from human menin; Fluorescence polarization, fluorescein-MLL peptide displacement from menin; 290,000 tested, under 10 active; FP activity change, % at 61.4 µM; AID 1766; inconclusive = falling polarisation curve, or a change in total fluorescence; inactive = total fluorescence flat and polarisation flat or rising; no compound was filed as active; the % refers to the polarisation; negative = inhibition;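 also: % of control where 0% means no effect; inhibitors lower the polarisation; unlabelled MLL peptide was the positive control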
gsp agonist: gsp mutant agonism. gsp mutant cells, cAMP HTRF, 30 min; control for the full effect not named in the record. Potency, µM (titrated, usually from 76.9 µM), for the others: at the highest dose activation (cAMP increase), usual class: activators. hit rate 0.13% among 340,000. AID 624287; active = well fitted activation curve with a large enough effect; inconclusive = small, poorly fitted or top-dose-only effect, or another doubt; inactive = no such curve, though single readings can be large or run the other way; cell line not stated here;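 also: phosphodiesterase inhibitor Ro 20-1724 added with compounds to block cAMP breakdown; potency is read from the fitted curve at half-maximal effect; nearly all actives have a fitted effect of over 60% in size; about a fifth of the inactives were tested at one dose only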
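Cells stably selected in G418 were plated at 2000/well, grown 16-24 hr, then given compounds in DMSO with the PDE inhibitor […] (300 uM solution added) for 30 min at 37C; cAMP was read by HTRF.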
ClpP mod: qHTS Assay for Activators of ClpP | hit rate 1.9% among 340,000 | purified B. subtilis ClpP, FRET peptide cleavage, 20 min | Potency, µM (highest dose often 57.5 µM), without a hit: top-dose activity change, negative = active | AID 651965, 2013 | ATP-dependent Clp protease proteolytic subunit (Bacillus subtilis (strain 168)), P80244; active = well fitted falling curve with a large enough effect; inconclusive = small, poorly fitted or top-dose-only effect; inactive = no such curve, though single readings can be large or run the other way; also: potency is read from the fitted curve at half-maximal effect; the source files actives as falling curves though it sought activators and does not explain the sign; nearly all actives have a fitted effect of over 65% in size; many hits overshoot -100%
Target sequence (P80244 whole entry, looked up): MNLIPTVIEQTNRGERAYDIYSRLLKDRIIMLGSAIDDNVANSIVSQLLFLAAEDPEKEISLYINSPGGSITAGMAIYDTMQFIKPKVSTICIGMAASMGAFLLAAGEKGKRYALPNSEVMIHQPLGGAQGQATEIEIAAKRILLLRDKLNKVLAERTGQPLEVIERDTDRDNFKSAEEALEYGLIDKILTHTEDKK
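FRET quenching reversal measured ClpP activation: 10 microg/mL B. subtilis ClpP at pH 8 with the FRET-FV decapeptide, read at 430 nm after 320 nm excitation. The 20-min minus 0-min signal was scaled between DMSO/no-enzyme wells and ADEP (5.8 microM final).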
Active calls of the source: *; ? = inconclusive; . = no result given; & = joins results of further samples; [ ] = remark or other dose.

SMILES | TRPML1 blocker | TRPML1 agonist | gsp antag | Menin MLL FP FL | gsp agonist | ClpP mod
O=C(NC1CCCCC1)C1CCN(S(=O)(=O)N2CCOCC2)CC1 | 17 | 0.2 | 7% | 0.5 | 8% | 1.6%
Cn1c(=O)cc(OCCCC(=O)NCCN2CCN(c3ccccc3F)CC2)c2ccccc21 | 30 | -0.1 | -2% | 1.0 | -158%[inhibitor] | -2.6%
Cc1cccc(NC(=O)CSc2ccc(-c3cccs3)nn2)c1C | 5 | 5.2 | -29% | 3.4 | 22% | 1.4%
CCN(Cc1nc(-c2cccc(Cl)c2)no1)CC1CCCO1 (centres undefined) | 1 | 1.8 | 1% | -4.3 | 14%[15.4 µM] | .
O=C(CN1C(=O)C2CC=CCC2C1=O)NCC(=O)Nc1ccc(F)c(F)c1 (centres undefined) | -19 | 1.2 | -9% | . | -46%[inhibitor] | -1.7%
O=C(NCC(=O)N1CCN(Cc2c(F)cccc2Cl)CC1)c1cccs1 | -4 | 0.3 | . | . | -20% | -4.2%
COC(CNC(=O)CN1CCN(Cc2ccccc2F)C1=O)OC | 4 | 1.1 | 9% | -2.5 | -6% | 0.2%
O=C(COc1ccccc1)Nc1nnc(C23CC4CC(CC(C4)C2)C3)s1 | -8 | -0.4 | 3% | -1.5 | -37%[inhibitor] | -0.7%
COc1ccc(NC(=S)Nc2ccccn2)c(OC)c1 | -3 | -0.9 | 3% | -0.3 | -40%[inhibitor] | -1.2%
COc1ccccc1N1CCN(/N=C/c2ccccc2C(=O)O)CC1 | -18 | 0.6 | 4% | -4.3 | -19% | 1.4%
CCCC(C(=O)NC(C)(C)CC)N(Cc1ccco1)C(=O)CNS(=O)(=O)c1ccccc1 (centres undefined) | -4 | 0.4 | -5% | . | ? | .
O=S(=O)(Nc1ccc2c(c1)OCO2)c1cccc(Br)c1 | -5 | 1.4 | 5% | . | -82%[inhibitor] | 0.5%
COc1ccc(C(=O)c2cn(Cc3cccc(C)c3)c3cc4c(cc3c2=O)OCCO4)cc1OC | 0 | 2.2 | . | . | . | -1.3%
COc1ccc(NC(=O)N(CCCN2CCOCC2)Cc2cccnc2)c(OC)c1 | -2 | -0.1 | 5% | . | -2% | -0.6%
Cc1cccc(CSc2nc3cccnc3n2Cc2ccc(C(=O)NCc3ccco3)cc2)c1 | 14 | 4.1 | . | . | . | 4.6%
Cc1cccc(C(=O)N(Cc2ccccc2F)C2CCS(=O)(=O)C2)c1 (centres undefined) | 20 | -0.6 | . | . | . | -0.4%
O=C(COC(=O)c1nc(Cl)ccc1Cl)Nc1ccc2[nH]c(=O)[nH]c2c1 | 8 | 0.2 | 3% | . | -64%[inhibitor] | -1.6%
CN(C)C(CNC(=O)c1ccc(S(=O)(=O)Nc2ccccc2)cc1)c1ccco1 (centres undefined) | -15 | 1.2 | -3% | . | 0% | -14%
COC(=O)c1c(NC(=O)CCS(=O)(=O)c2ccccc2)sc2c1CCN(C)C2 | -5 | -0.3 | 4% | 6.5 | -9% | -5.4%
Cc1cccc(NC(=O)CSc2nc3ccc(NC(=O)COc4ccccc4C)cc3s2)c1 | 10 | 0.0 | . | . | . | -1.9%
COC(=O)c1ccccc1NC(=O)CSc1n[nH]c(-c2ccco2)n1 | -20 | 0.8 | 10% | -1.9 | 14%[15.4 µM] | .
Cc1cc(C)c(-c2csc(NC(=O)/C=C/c3cccs3)n2)c(C)c1 | 10 | 1.0 | 2% | 0.7 | 17% | -19%
COCCNC(=O)CSc1nnc(-c2ccccc2)c(-c2ccccc2)n1 | -6 | 0.4 | 2% | 1.5 | 2% | -1.9%
C=C(c1ccccc1O)n1ccnc1 | 10 | -1.5 | 8% | -0.1 | 8%[15.4 µM] | 13µM*
COc1ccc(NC(=O)CCCCn2c(=O)[nH]c3ccccc3c2=O)cc1 | 10 | -0.5 | 13% | 0.5 | -47%[inhibitor] | -21%
NC(=NCCc1ccccc1)NC(=O)c1cc(Cl)ccc1O | 29 | 0.8 | -19% | . | 10% | .
COC(=O)C(C(=O)Nc1ccccc1C)C1CCCCCC1 (centres undefined) | -8 | -0.7 | 9% | -0.7 | 14%[15.4 µM] | .
Brc1ccc(-c2csc3ncnc(-n4nnc5ccccc54)c23)cc1 | 42 | 3.5 | -12% | -6.7 | 4% | -28%
Cc1cc(C)cc(N(CC(=O)NC(C)(C)C)C(=O)CCC(=O)Nc2nccs2)c1 | 59 | 1.6 | -23% | -4.7 | -39%[inhibitor] | 1.3%
Cc1cc(NC(=O)CSc2nc3c(cnn3-c3cccc(Cl)c3)c(=O)[nH]2)no1 | 15 | 0.4 | -4% | . | 0%[15.4 µM] | -13%
CCCSc1ncc(Cl)c(C(=O)Nc2ccc(S(=O)(=O)N3CCC(C)CC3)cc2)n1 | -5 | 0.2 | . | . | . | -8.7%
CC(C)(C)c1csc(NC(=O)c2ccc(Br)o2)n1 | 3 | -0.5 | ? | . | -10% | -0.7%
CC(O)(C#CCN1CCCC1)c1ccccc1 (centres undefined) | 7 | 0.6 | 8% | 0.9 | -73%[inhibitor] | 0.2%
Cc1nc(NCCc2ccccc2F)c(C#N)c(C)c1[N+](=O)[O-] | 6 | 2.3 | -20% | 4.6 | -11% | -1.3%
CN(CC(=O)Nc1ccc(Cl)cc1)C(=O)CNC(=O)c1ccc2c(c1)OCO2 | -22 | -0.3 | 4% | . | -58%[inhibitor] | -7.8%
O=C(O)c1ccccc1Nc1ccc2nonc2c1[N+](=O)[O-] | -5 | -0.3 | -31% | -1.2 | ? | 0.5%
COc1ccccc1CNC(=O)COC(=O)CSc1ccc(C)c(C)c1 | -2 | 4.9 | 0% | . | -6%[15.4 µM] | .
CCc1cccc(N2C(=O)N(Cc3c(F)cccc3Cl)c3ccccc3S2(=O)=O)c1 | -9 | -1.2 | . | . | . | 1.8%
CCc1nc2ccc(C(=O)N3CCN(S(=O)(=O)CC)CC3)cn2c1N(C)C(=O)C1CCCCC1 | -8 | -0.3 | . | . | . | -0.9%
CC1=C(C(=O)OCc2ccccc2)C(c2ccc(N(C)C)cc2)NC(=O)N1 (centres undefined) | 2 | 2.6 | -10% | 3.2 | -34%[inhibitor] | -4.9%
CCSc1c(-c2ccccc2)nc2c(C)cccc2c1C(=O)O | -9 | 0.3 | 4%[15.4 µM] | 0.9 | -9% | -7.8%
COc1cc(OC)c2c3c(c(C4CCCCC4)nc2c1)CCC3 | -12 | 0.8 | 0% | . | . | 4.3%
OC1(c2cccc(C(F)(F)F)c2)CCN(c2ncnc3c2[nH]c2ccc(F)cc23)CC1 | 9 | 0.3 | 25µM* | 8.3 | -27% | ?
CCCc1nn2c(=O)cc(COC(=O)c3cccc(NC(=O)CCc4ccccc4)c3)nc2s1 | -62* | 2.4 | . | . | . | 4.5%
COc1ccc(CC(=O)Nc2ccc(-c3nc4ccccc4s3)c(C)c2)cc1OC | 1 | 0.5 | . | . | . | ?
COc1cc(-c2noc(C)c2C#Cc2ccsc2)cc(OC)c1OC | 22 | 10&1.6 | 21% | 0.8 | 1% | -12%&-3.4%
CCCCNC(=O)[C@H]1C[C@H]1[C@@H](O)[C@H](CO)NC(=O)[C@H](COCc1ccccc1)NC(=O)OC(C)(C)C | -9 | 0.4 | 6% | 0.8 | ? | -2.1%
COc1cc(C(NC=O)C(=O)Nc2c(C)cccc2C)ccc1O (centres undefined) | . | . | 6% | 5.5 | ? | 0.3%
CCCCn1c2nc3ccccc3nc2c2c(=O)n(-c3ccccc3)cnc21 | -8 | 2.6 | 2% | -2.2 | -1%[15.4 µM] | .
Cc1nc(N)nc(N)c1-c1ccc(Cl)c(Cl)c1 | -15 | 3.6 | 9% | . | -31%[inhibitor] | 1.8%
COc1ccc(NC(=O)CCC(=O)N2CCCC2)c([N+](=O)[O-])c1 | -5 | -0.7 | 3% | 2.9 | -7% | 1.4%
NC(=O)[C@@H]1CCCN1Cc1nc(Cc2ccccc2F)no1 | 18 | -0.7 | 7% | -3.5 | 13% | 0.6%
O=C(Cc1ccccc1)O/N=C1\CCCc2ccccc21 | 7 | 0.0 | 1% | 2.0 | -2%[15.4 µM] | .
O=C(c1cccs1)N1CCN(C2CCN(Cc3ccccc3)CC2)CC1 | -4 | 0.0 | 15% | 0.9 | 14% | 1.5%
Cc1noc(C)c1NC(=O)N(C)C[C@H]1Oc2ccc(NS(=O)(=O)c3cccs3)cc2C(=O)N([C@H](C)CO)C[C@@H]1C | 1 | -0.3 | 5% | . | . | 3.1%
COc1cc2c(-c3ccc(C)cc3)nc3c(c(C)nn3-c3ccccc3)c2cc1OC | 18 | -0.4 | . | . | . | -10%
COc1ccc(NC(=S)N2CCN(Cc3ccccc3)CC2)cc1 | 3 | -0.9 | 7% | -3.9 | 7%[15.4 µM] | .
CCOc1cccc(=O)c2c(C)n(CC(=O)c3ccccc3)c(C)c12 | -9 | 0.0 | -14% | ? | 1%[15.4 µM] | .
COC(=O)c1nn2c(C(F)(F)F)cc(-c3ccc(Br)o3)nc2c1Br | -6 | 3.2 | -17% | ? | -2% | 0.9%
CCN(C(=O)COC(=O)CCOc1cc(C)ccc1C)c1c(N)n(Cc2ccccc2)c(=O)[nH]c1=O | -13 | -0.7 | 13% | . | -48% | 1.6%

Remaining list, next part
SMILES | TRPML1 blocker | TRPML1 agonist | gsp antag | Menin MLL FP FL | gsp agonist | ClpP mod
Cn1nc(-c2ccc(NCCO)c([N+](=O)[O-])c2)c2ccccc2c1=O | -8 | -0.2 | 11% | 5.5 | 10% | .
COc1cccc(OC)c1C(=O)N1CCN=C1SCc1cccnc1 | -13 | -0.4 | 9% | -2.1 | 10% | -1.3%
CC1(C)CC(=O)C2=C(C1)Nc1ccccc1NC2c1ccc(F)c(F)c1 (centres undefined) | 3 | 0.2 | -15% | -2.3 | -3% | 2.7%
Cn1c(SCC(=O)N2CCCC2)nc2c(c1=O)SCC2 | -1 | -0.9 | . | . | -1% | -0.7%
CCOC(=O)c1ccc2c(c1)nc(SC(C)C(=O)NCC1CCCO1)n2CC (centres undefined) | -6 | -1.1 | 9% | . | -2% | -4.0%

Source: PubChem (National Center for Advancing Translational Sciences (NCATS))
